NPYLR7 ag: activates Aedes aegypti NPYLR7 receptor; HEK293T NPYLR7/Galpha15, GCaMP6s calcium fluorescence; 0.15% of 270,000 active; activation, % at 10 µM; in the data active = activation above about 40%;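 note: 0% = vehicle and 100% = reference agonist at the receptor; some compounds past the cut are filed as inactive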
NPYLR7 ag max-min: also measured in NPYLR7 ag; calls as there; activation, %; measured here: Max-Min RFU normalised activation; some inactives read as strong as hits;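 span of the calcium signal over five minutes; 0% = vehicle and 100% = native peptide agonist; compound fluorescence can raise it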
The depositor's hits bear a star; & = joins results of further samples.

SMILES | NPYLR7 ag | NPYLR7 ag max-min
Cc1nc(N2CCCCC2)ncc1-c1cc(=O)[nH]c(N2CCc3ccccc3C2)n1 | 2 | -2
COCCNc1nc(Oc2ccc(CC(=O)OC)cc2)c2sc(-c3ccccc3)cc2n1 | 9 | 2
O=C(C(c1ccccc1)S(=O)(=O)c1ccccn1)N1CCCC1 (configuration not stated) | 11 | 8
O=C(CCCn1nc(-c2ccc(Cl)cc2)ccc1=O)NCc1ccc(F)cc1 | -1 | 2
Cc1ccc(Cl)c2sc(N(Cc3ccccn3)C(=O)CN3C(=O)CCC3=O)nc12 | 3 | -4
O=C1C(=C2SC(=S)N(C3CCS(=O)(=O)C3)C2=O)c2ccccc2N1Cc1ccccc1F (configuration not stated) | 0 | -4
O=C(c1csc(Cc2ccccc2)n1)N1CCCC1c1ccccn1 (configuration not stated) | 8 | 4
Cc1ccc(S(=O)(=O)NC(=O)C2=CN(Cc3ccccc3)C=C(C#N)C2)cc1 | 1 | -3
CCC(=O)N(c1nnc(SCc2nc3ccsc3c(=O)[nH]2)s1)C1CC1 | -1 | 11
O=C(NCCC(=O)N1CCOCC1)c1cc2c(s1)CCCCCC2 | 5 | 1
O=c1ccc(-c2ccco2)nn1CCNS(=O)(=O)CCc1ccccc1 | 0 | -2
CCn1c(C2CCN(C(=O)Cn3ccc4ccccc43)CC2)n[nH]c1=O | 0 | 0
CC1CCc2sc(C(=O)NCc3ccc4c(c3)OCO4)cc2C1 (configuration not stated) | 7 | 5
CC1CN(S(=O)(=O)N(Cc2ccc(C(F)(F)F)cc2)C2CC2)CC(C)O1 (configuration not stated) | 0 | 3
Cc1cc(NC(=O)CNC(c2cccs2)C(C)C)on1 (configuration not stated) | -3 | -1
Cc1cc(CNC(=O)CC2NC(=O)c3ccccc32)c2[nH]c(C)c(C)c2c1 (configuration not stated) | 5 | -5
Cc1ccccc1OCCNC(=O)c1c(Cl)nc2ccccn12 | 5 | 2
COCc1ccc(C(=O)NC2C3CC4CC(C3)CC2C4)cc1 (configuration not stated) | -9 | -11
Cc1cc(NC(=O)CN(C)CCNC(=O)C2CCCC2)no1 | 1 | 0
COCCCN(CC(=O)N(Cc1ccccc1)Cc1cccn1Cc1cccc(OC)c1)C(=O)c1ccc(C(F)(F)F)cc1 | -6 | -9
CCc1cnc2c(c1SCc1ccccc1C)c(=O)n(C)c(=O)n2C | 8 | 14
Cc1ccccc1-c1cn(CC(=O)NCCc2ccc(Cl)cc2)nc1N1CCOCC1 | 47 | 40
O=C(c1cn[nH]n1)N(Cc1cccnc1)Cc1ccsc1 | 5 | -1
COc1ccc(N(C)S(=O)(=O)c2ccc(OC)c(N3CCN(C(=O)c4ccc(Cl)c(Cl)c4)CC3)c2)cc1 | 24 | 9
O=C(O)c1cccn(Cc2ccccc2Cl)c1=O | -2 | -2
CC1(C(=O)NS(=O)(=O)c2ccc(Cl)s2)CCN1C(=O)Cc1ccc(Cl)cc1Cl (configuration not stated) | 6 | 2
O=C(NC(Cc1ccccc1)c1ccccc1)C1CCCO1 (configuration not stated) | 1 | -1
NC(=O)CSc1nnc2[nH]c(=O)c3c(n12)CCCC3 | -4 | -10
CN(C)CCCN1C(c2ccccc2)=CC(=C2C(=O)N(C)C(=O)N(C)C2=O)C2=C1CCCC2 | -7 | -10
CC(C)(C)c1ccc(OC(=O)CN2C(=O)C3C4CCC(C4)C3C2=O)cc1 (configuration not stated) | 2 | -1

Structural class, the compounds so far with a Cl atom
SMILES | NPYLR7 ag | NPYLR7 ag max-min
O=C(CCCn1nc(-c2ccc(Cl)cc2)ccc1=O)NCc1ccc(F)cc1 | -1 | 2
Cc1ccc(Cl)c2sc(N(Cc3ccccn3)C(=O)CN3C(=O)CCC3=O)nc12 | 3 | -4
Cc1ccccc1OCCNC(=O)c1c(Cl)nc2ccccn12 | 5 | 2
Cc1ccccc1-c1cn(CC(=O)NCCc2ccc(Cl)cc2)nc1N1CCOCC1 | 47 | 40
COc1ccc(N(C)S(=O)(=O)c2ccc(OC)c(N3CCN(C(=O)c4ccc(Cl)c(Cl)c4)CC3)c2)cc1 | 24 | 9
O=C(O)c1cccn(Cc2ccccc2Cl)c1=O | -2 | -2
CC1(C(=O)NS(=O)(=O)c2ccc(Cl)s2)CCN1C(=O)Cc1ccc(Cl)cc1Cl (configuration not stated) | 6 | 2

Of the compounds above, three contain two or more sulfur atoms.
SMILES | NPYLR7 ag | NPYLR7 ag max-min
O=C1C(=C2SC(=S)N(C3CCS(=O)(=O)C3)C2=O)c2ccccc2N1Cc1ccccc1F (configuration not stated) | 0 | -4
CCC(=O)N(c1nnc(SCc2nc3ccsc3c(=O)[nH]2)s1)C1CC1 | -1 | 11
CC1(C(=O)NS(=O)(=O)c2ccc(Cl)s2)CCN1C(=O)Cc1ccc(Cl)cc1Cl (configuration not stated) | 6 | 2

(cont.)
SMILES | NPYLR7 ag | NPYLR7 ag max-min
O=c1oc2ccccc2cc1-c1csc(Nc2ccccc2I)n1 | -4 | -12
O=C(c1cccs1)C1C(c2cccs2)NC(=S)NC1(O)C(F)(F)F (configuration not stated) | 15 | 14
Clc1ccc(CN2CCC(Oc3ccncc3)C2)c(Cl)c1 (configuration not stated) | 1 | -1
COc1ccccc1NC(=O)N1CCC2(CC1)SCCN2C(=O)COc1ccccc1 | 1 | 5
COc1ccc(NC(C)=O)cc1NS(=O)(=O)c1c(C)n(C)c(=O)n(C)c1=O | -2 | -4
OC(COCc1ccccc1)CN(CCN1CCOCC1)Cc1ccco1 (configuration not stated) | 26 | 36
O=c1[nH]c2ccccc2c2c1Nc1[nH]c(=O)c3ccccc3c1C2c1ccccc1 (configuration not stated) | 4 | 5
CCNC(=S)NN=Cc1sccc1C | 6 | 12
CCN(Cc1ccc(C(N)=O)cc1)Cc1ccc(Cl)s1 | -5 | -6
Cc1nn(-c2ccc(F)cc2)c(C)c1C(=O)N1CCC2(CN(C)C(=O)O2)C1 (configuration not stated) | 4 | 5
O=C(Nc1sc2c(c1C(=O)O)CCC2)c1ccco1 | 9 | 6
COc1ccc(C2c3cccn3CCCN2CCC(C)C)c(OC)c1OC (configuration not stated) | -3 | 8
CC(C)c1ccc(-c2nc(CNc3ccccc3C(N)=O)cs2)cc1 | 1 | 1
CN(C)C(=O)CSc1nnc(N)s1 | 5 | 4
COc1cccc(Nc2cc3[nH]c(-c4ccc(C(=O)N(C)C)cc4)cc3cn2)c1 | 0 | -3
CCCN(Cc1nc(C(=O)OC)cs1)C(=O)c1ccc(Cl)cc1Cl | -5 | -11
O=C1CN(C(=O)c2cc(F)cc(Br)c2)CCN1 | -6 | -6
COCCCn1ccnc1-c1cccc(OC)c1OC | 2 | 2
CCC(NC(=O)CCC1(Cc2ccc(F)cc2)CCC(=O)N1)C12CC3CC(CC(C3)C1)C2 (configuration not stated) | 3 | 3
Cc1cc(OS(=O)(=O)c2cccc(S(=O)(=O)N(C)C)c2)ccc1Cl | 9 | 5
C=CCN(CC=C)C(=O)c1ccc(-c2ccc(C3CCCCC3)cc2)s1 | 3 | 2
O=C(CNC(=O)C1CC1(c1ccccc1)c1ccccc1)NCCc1c[nH]c2ccccc12 (configuration not stated) | -7 | -13
CCn1nc(C)c(NC(=O)Cn2nc(C3CCCNC3)n(CC)c2=O)c1C (configuration not stated) | -3 | -5
COc1ccc(OC)c(C=NNC(=O)c2n[nH]c3c2CCC3)c1 | 11 | 17
CCCCNC(=O)NCc1nnc(SCc2ccccc2C)n1-c1cc(Cl)ccc1Cl | 19 | 13
CC(=NNc1ccc([N+](=O)[O-])cc1[N+](=O)[O-])C1CCCCC1 | 7 | 7
Cc1noc(C)c1CNC(=O)Cc1nc(-c2ccccc2)n[nH]1 | -1 | -2
COc1ccc(C(=O)Oc2ccc(C(C)C)cc2)cc1OC | 2 | 0
O=c1cccnn1CCCNS(=O)(=O)c1ccc(F)cc1 | -7 | -11
Cc1nnnn1-c1cccc(NCC(=O)N2CCCCC2C)c1 (configuration not stated) | -2 | -3
CCOC(=O)c1nc2cc(C)c(C)cc2nc1N1CCN(C(=O)c2ccco2)CC1 | 8 | 1
CC(C)Cc1noc(CN2Cc3ccccc3CC2C(N)=O)n1 (configuration not stated) | 7 | 5
CC(C)NC(=O)NCCc1ccc(NS(=O)(=O)c2ccccc2C(F)(F)F)cc1 | -8 | -13
O=C(NC1CC(=O)N(CCCc2ccccc2)C1)c1ccsc1 (configuration not stated) | -8 | -8
CC(CCOC(=O)c1cc([N+](=O)[O-])cc([N+](=O)[O-])c1)CCc1ccccc1 (configuration not stated) | 4 | 2
CC(C)CC(NC(=O)CN)C(=O)NC(Cc1ccccc1)C(=O)O (configuration not stated) | -4 | -10
CC(=O)N1c2ccccc2N=C2CC(C)(C)CC(=O)C2C1c1ccc([N+](=O)[O-])s1 (configuration not stated) | 5 | 1
CCCn1c(CN2CCCCC2C)nc2c1c(=O)n(C)c(=O)n2C (configuration not stated) | 8 | 4
O=C(Nc1ccc(F)cc1)Nc1ccc(Nc2ccc(-n3cccn3)nn2)cc1 | -6 | -11
COCCn1c(SCc2ccccc2OC(F)F)nnc1-c1cc(-c2ccccc2)nc2ccccc12 | -2 | 0
Cc1nc2c(c(-c3ccccn3)c1C(=O)OCCc1ccccc1)C(O)CCC2 (configuration not stated) | -1 | -6
O=C(c1n[nH]c2c1CCCC2)N1CCC2(CCCN(Cc3ccc(F)cc3)C2)C1 (configuration not stated) | 5 | 0
N#CC(=C(O)c1ccc2c(c1)S(=O)(=O)c1ccccc1C2=O)c1nc2ccccc2s1 | -1 | -3
Cc1cc(NC(=O)c2cccs2)n(-c2nc(-c3ccccc3)cs2)n1 | -10 | -13
O=C1OC(c2cccc(F)c2)=NC1=Cc1cc2ccccc2o1 | 6 | 4
O=C(CSc1nc2ccccc2s1)NN=Cc1c(O)ccc2ccccc12 | 0 | 0
Cc1nn(-c2ccccc2)c(C)c1P(C)(=O)c1ccccc1 (configuration not stated) | -7 | -6
Cc1ccsc1CN(Cc1ccccc1)C(=O)CN(C(=O)Nc1ccc(C(F)(F)F)cc1)C1CCCCC1 | -11 | -14
CCOC(=O)c1nn(-c2ccc(C(F)(F)F)cc2)c(=O)c2c(NC(=O)COC)scc12 | 0 | 0
CCn1ccc(C(=O)Nc2cc(C)nn2-c2nc3ccccc3s2)n1 | -8 | -14
c1ccc(C2=Nc3nnnn3C(c3cn(-c4ccccc4)nc3-c3ccccc3)C2)cc1 (configuration not stated) | -4 | -4
CCOc1cccc(C=C2N=C(c3ccccc3OC)OC2=O)c1OC | 0 | 0
Cc1c(C)c(C(=O)N2CCCC2)n(Cc2ccc(F)c(F)c2)c1C | 11 | 24
COCc1cc(C)nc(OCC(=O)N/N=C\c2ccc(C)cc2)c1C#N | 4 | -5
COc1cccc(N2CCn3c2nc2c3c(=O)n(CCN3CCOCC3)c(=O)n2C)c1 | -12 | -14
COCCN=c1scc(-c2ccc(OC)cc2OC)n1N=Cc1ccc(O)c(O)c1O | -5 | -8
O=C1C(C(c2ccco2)N2CCCC2)Sc2nc(-c3ccco3)nn21 (configuration not stated) | 0 | -2
CCC(C)NCc1csc(COc2ccc(OC)cc2)n1 (configuration not stated) | 11 | 7
Cn1ncc(I)c1C(=O)N1CCOCC1 | -4 | -7
O=C(NCc1cccc(I)c1)c1cncn1-c1cccc(-c2ccccc2C(F)(F)F)c1 | 24 | 11
Other results follow:
SMILES | NPYLR7 ag | NPYLR7 ag max-min
COc1ccc(-c2cc(C(=O)O)sc2C)cc1 | 7 | 2
Cc1cc(Cl)cc(C)c1OCC(=O)NCCc1nnc2ccccn12 | 10 | 8
O=C(CC(c1ccc(OCc2ccccc2)cc1)c1c[nH]c2ccccc12)NCc1ccccc1 (configuration not stated) | 0 | 4
c1cc(C2CN(Cc3cc(C4CCCCC4)no3)C2)ccn1 | 7 | 2
O=C(NCc1ccco1)c1csc(-c2cc3ccccc3[nH]2)n1 | 6 | 6
CCc1nc(C)c(C(=O)NCCOc2cccc3cccnc23)o1 | 20 | 9
COc1cccc2c1OCCCN(c1ccc(-c3nccn3C)nn1)C2 | 0 | -1
CCOC(=O)N1CCN(C2CCCN(Cc3ccc4c(c3)CCO4)C2)CC1 (configuration not stated) | 5 | -1
Cn1c(SCC(=O)NCCc2ccccc2)nnc1C1CCS(=O)(=O)C1 (configuration not stated) | 1 | -2
Cc1noc(C)c1CC(=O)NC1CC(=O)N(CCc2cccc(Cl)c2)C1 (configuration not stated) | 20 | 7
COc1ccccc1C1SCC(=O)N(CC(=O)N2CCOCC2)c2c1c(-c1ccccc1)nn2-c1cccc(C)c1C (configuration not stated) | 15 | 22
CCOC(=O)C1(Cc2ccc(Cl)cc2)CCN(Cc2cccc(C(C)=O)c2)CC1 | 6&3 | 1&-1
CCCCc1ncc(CN2CCC3(CCCN(C(=O)C(C)(C)C)C3)C2)[nH]1 (configuration not stated) | -1 | 15
COc1ccc2nc(-c3ccc(C)c(NS(=O)(=O)c4cccc(C)c4)c3)cn2n1 | -12 | -16
Cc1ccc(Cl)cc1NC(=O)CCn1cncn1 | 6 | 5

Compounds shown so far that contain a tert-butyl group:
SMILES | NPYLR7 ag | NPYLR7 ag max-min
CC(C)(C)c1ccc(OC(=O)CN2C(=O)C3C4CCC(C4)C3C2=O)cc1 (configuration not stated) | 2 | -1
CCCCc1ncc(CN2CCC3(CCCN(C(=O)C(C)(C)C)C3)C2)[nH]1 (configuration not stated) | -1 | 15

More records:
SMILES | NPYLR7 ag | NPYLR7 ag max-min
CC(=O)N[C@H]1CCN(C)C[C@@H](O)C1 | 5 | 6
CCSCCNC(=O)c1sc2cc3c(cc2c1Cl)OCO3 | 3 | 1
O=S(=O)(NN=Cc1ccc(Br)cc1)c1ccc(Br)cc1 | 3 | 0
Cc1ccc(F)c(Oc2cc(N3CCN(C(=O)C(C)(C)CCl)C(C)C3)ncn2)c1 (configuration not stated) | -10 | -5
Cc1cccc(-n2nc(C(=O)N3CCN(C)CC3)c(=O)n(Cc3cccc(C(F)(F)F)c3)c2=O)c1 | 1 | 1

Not a retest: entries from further up.
SMILES | NPYLR7 ag | NPYLR7 ag max-min
Cc1ccc(F)c(Oc2cc(N3CCN(C(=O)C(C)(C)CCl)C(C)C3)ncn2)c1 (configuration not stated) | -10 | -5
Cc1cccc(-n2nc(C(=O)N3CCN(C)CC3)c(=O)n(Cc3cccc(C(F)(F)F)c3)c2=O)c1 | 1 | 1

The list is partial, so the mix of outcomes need not match the whole.
